VDR inh = inhibitors of human vitamin D receptor; 0.93% of 400,000 active; AID 504847; VDR-SRC2-3 peptide fluorescence polarization, 2 h; Potency, µM, for the others: max response, negative = inhibition, hits mostly inhibitors; P11473; active = well fitted inhibition curve with a large enough effect; inconclusive = small, poorly fitted or top-dose-only effect, or another doubt; inactive = no such curve, though single readings can be large or run the other way; note: series mostly up to about 120 µM
Target sequence (P11473 whole entry, looked up): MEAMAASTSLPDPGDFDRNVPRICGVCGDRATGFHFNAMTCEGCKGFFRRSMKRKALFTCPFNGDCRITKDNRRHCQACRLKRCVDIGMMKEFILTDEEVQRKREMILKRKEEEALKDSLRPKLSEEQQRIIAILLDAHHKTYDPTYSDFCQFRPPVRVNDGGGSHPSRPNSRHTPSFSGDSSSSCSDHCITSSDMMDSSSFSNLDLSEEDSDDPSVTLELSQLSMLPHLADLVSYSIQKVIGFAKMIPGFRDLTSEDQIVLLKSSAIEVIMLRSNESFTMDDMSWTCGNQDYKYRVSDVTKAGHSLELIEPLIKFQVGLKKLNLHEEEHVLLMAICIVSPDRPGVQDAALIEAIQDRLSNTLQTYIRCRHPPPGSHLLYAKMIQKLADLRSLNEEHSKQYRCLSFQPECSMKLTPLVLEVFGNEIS
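Reagent solutions, kept cold and dark, are dispensed first; compounds are then pinned in at 23 nl, plates briefly spun, and incubated 2 h at ambient temperature. Inhibition of VDR–SRC2-3 peptide binding is read by fluorescence polarization.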
* marks the source's active call; other numbers are inactive results; & = joins results of further samples. % is set by controls: 0 for no effect and ±100 for the full control effect; potency is the fitted concentration of half-maximal effect. An excerpt; the hit share may differ from the screen's.

`CC1(C2CC2)NC(=O)N(CC(=O)Nc2ccc(F)cc2F)C1=O` (stereo not drawn) gave VDR inh -5%.
`Cc1cccc(Cc2nnc(CCC(=O)N(CC3CC3)CC3CCCO3)o2)c1` (stereo not drawn) gave VDR inh 9%.
`CC(C)c1ccccc1OCC(=O)N(C)CC(=O)Nc1ccc(F)cc1` gave VDR inh -2%.
For CCCCN(C(=O)c1cc(CN2C(=O)c3ccccc3C2=O)ccc1OC)c1c(N)n(CC(C)C)c(=O)[nH]c1=O the results were VDR inh -2%.
`Cc1cccc2c1N(C(=O)c1ccco1)C(C)(C)c1ssc(=S)c1-2` gave VDR inh -5%.
Screening Cc1cc(/C=C(\C#N)C(=O)NCc2ccco2)c(C)n1-c1cccnc1 returned VDR inh 3%.
Cn1c(-c2ccccc2)cnc1SCC(=O)N1CCCc2ccccc21 was read as VDR inh -5%.
O=C(CN(c1ccccc1)S(=O)(=O)c1ccccc1)N1CCOCC1 was read as VDR inh 5%.
Screening Cn1c(=O)c2c(nc(NCc3ccccc3)n2Cc2ccccc2Cl)n(C)c1=O returned VDR inh -15%.
For O=C(CCCCC(=O)Nc1ccccc1Cl)Nc1ccccc1Cl the results were VDR inh inconclusive.
For COc1ccc(NC(=O)N(Cc2nnc3n2CCCCC3)c2ccc(OC)c(Cl)c2)cc1 the results were VDR inh 6%.
`O=C(OCc1ccccc1Cl)C1CC(=O)N(Cc2ccco2)C1` (stereo not drawn) gave VDR inh 6%.
`O=C(COc1ccc(-n2cnnn2)cc1)NCCc1ccc(F)cc1` gave VDR inh -20%.
`CC(=NNC(=S)Nc1ccccc1Cl)c1ccccn1` gave VDR inh -29%.
Screening Cc1csc(=O)n1CC(=O)OCC(=O)NNC(=O)c1ccccc1 returned VDR inh inconclusive.
Cc1cccc(C(=O)NC(C(=O)Nc2nc(-c3ccccn3)cs2)C(C)C)c1 (stereo not drawn) was read as VDR inh -10%.
For CC(=O)c1ccc(NC(=S)N2CCCCCC2)cc1 the results were VDR inh -5%.
`Cc1ccc(Cl)cc1N1CCN(C(=O)C2CCCN(S(=O)(=O)c3ccc(Br)s3)C2)CC1` (stereo not drawn) gave VDR inh -12%.
`Cc1[nH]c2ccccc2c1CCNC(=O)CCC(=O)c1ccccc1` gave VDR inh 11%.
`Cc1nc2ccc3[nH]snc3c2n1` gave VDR inh 24%.
O=C(OCC1CCCN2CCCCC12)c1ccc2c(c1)OCO2 (stereo not drawn) was read as VDR inh 0%.
For O=C(CCn1nc(-c2ccccc2)ccc1=O)NCCCN1CCCCCC1 the results were VDR inh -11%.
`Cc1csc2nc(CCNS(=O)(=O)c3ccccc3)cn12` gave VDR inh 3%.
Cc1sc2ncn(CC(=O)N3CCN(c4ccccc4)CC3)c(=O)c2c1S(=O)(=O)N1CCOCC1 was read as VDR inh -7%.
`CC(C)CNC(=O)CC1Nc2ccccc2NC1=O` (stereo not drawn) gave VDR inh 6%.
COc1ccccc1NC(=O)c1csc(-n2nc(C)cc2C(F)(F)F)n1 was read as VDR inh 10%.
`CCC(C(=O)O)n1nc(-c2ccccc2)c2cc(Cl)ccc21` (stereo not drawn) gave VDR inh -18%.
For C#CCNC(=O)C1=C[C@@H](C2CCCCC2)C[C@@H](OCc2ccc(CO)cc2)O1 the results were VDR inh 9%.
Screening COc1ccccc1CN1C(=O)CCC1(C)C(=O)NCc1cccnc1 (stereo not drawn) returned VDR inh -2%.
For CN1CCN(C(=O)c2c(O)c3cccc4c3n(c2=O)CC4)CC1 the results were VDR inh 13%.
`CCOc1ccccc1NC(=O)c1cnn2c(C(F)F)cc(-c3ccccc3)nc12` gave VDR inh -13%.
`O=S(Cc1cc(Sc2ccccc2)nc(-c2ccccc2)n1)c1ccccc1` (stereo not drawn) gave VDR inh 2%.
CCn1c(SCc2nc(-c3ccc(OC)c(OC)c3)no2)nnc1-c1cccs1 was read as VDR inh -5%.
Screening Cc1ccc(C)c(CN2C(=O)CSc3ccc(C(=O)N4CCCC4)cc32)c1 returned VDR inh -16%.
`CC1SC(c2ccc(F)cc2)NC1=O` (stereo not drawn) gave VDR inh 0%.
Screening COc1ccccc1NC(=O)C(=O)N/N=C/c1ccc([N+](=O)[O-])s1 returned VDR inh -8%.
Screening CCC1CCC2(CC1)NC(=O)N(CC(=O)Nc1cccc(S(=O)(=O)N(C)c3ccccc3)c1)C2=O (stereo not drawn) returned VDR inh 0%.
`Cc1nnsc1C(=O)Nc1cccc(Cl)c1Cl` gave VDR inh 7%.
Screening CC(=O)c1ccc(OC(=O)C2c3ccccc3Oc3ccccc32)cc1 returned VDR inh -1%.
For Cc1ccccc1N(CC(=O)NC1CCCC1)C(=O)CS(=O)CC(=O)Nc1ccc2c(c1)OCO2 (stereo not drawn) the results were VDR inh -2%.
O=C(CCN1CCN(C(c2ccccc2)c2ccccc2)CC1)N/N=C/c1ccc(O)cc1O was read as VDR inh 3%.
For CCCn1c(SCC(=O)N2CCN(c3ccc(OC)cc3)CC2)nc2c1c(=O)n(C)c(=O)n2C the results were VDR inh 0%.
`COc1ccc2[nH]c(=O)c(CN(C)C(=O)c3ccncc3)cc2c1` gave VDR inh -16%.
For O=C(CNC(=O)c1ccco1)NCC(=O)OCc1ccc(F)cc1 the results were VDR inh 21%.
For Cc1nn(C)c(Cl)c1C(N)=O the results were VDR inh -10%.
`CCN(CC(=O)NCc1ccccn1)S(=O)(=O)c1cc(Cl)ccc1Cl` gave VDR inh -7%.
Screening CCCC(c1nnnn1Cc1ccc(OC)cc1)N1CCN(c2ccccc2OC)CC1 (stereo not drawn) returned VDR inh -13%.
Screening CCN(CC)c1ccc(NC(=O)CN2CCN(c3ccccn3)CC2)cc1 returned VDR inh 12%.
O=C(O)CCNC(=O)c1ccc(Br)o1 was read as VDR inh 6%.
Screening CCN(Cc1ccncc1)C(=O)CCc1nnc(CCc2ccc(OC)cc2)o1 returned VDR inh -11%.

The final two compounds of the part above are carried over, then new ones follow.
O=C(O)CCNC(=O)c1ccc(Br)o1 was read as VDR inh 6%.
Screening CCN(Cc1ccncc1)C(=O)CCc1nnc(CCc2ccc(OC)cc2)o1 returned VDR inh -11%.
COc1ccc(CC(=O)N2CCCC(CNC(=O)c3ccccc3Cl)C2)cc1 (stereo not drawn) was read as VDR inh -1%.
For CC1CCN(c2ccc(-c3cccc(NS(=O)(=O)c4cccs4)c3)nn2)CC1 the results were VDR inh 4%.
`COc1cc(/C=N/n2c(C)nc3ccccc3c2=O)ccc1O` gave VDR inh 16%.
Screening CCOc1ccc(NC(=O)Cn2c(=O)c(CNc3ccccc3)cc3cc4c(cc32)OCCO4)cc1 returned VDR inh -6%.
For Cc1ccc2nc(SCC(=O)Nc3ccc(C)c(Cl)c3)nc(=O)n2c1 the results were VDR inh 11%.
`CCn1cc([N+](=O)[O-])c(C(=O)N2CCCCCC2)n1` gave VDR inh -9%.
For COc1cccc(NC(=O)COC(=O)CCCC2=NS(=O)(=O)c3ccccc3N2)c1 the results were VDR inh -15%.
Screening COc1ccc(NC(=O)COC(=O)CCSc2ccccc2)cc1 returned VDR inh 5%.
Screening Cc1ccc(-n2c(-c3ccccc3)cc(=O)nc2C)cc1 returned VDR inh 6%.
For CCc1c(C)sc2c1CCN(Cc1ccccc1)C2c1ccccc1 (stereo not drawn) the results were VDR inh 17%.
C[C@H](NC(=O)c1ccccc1Cl)C(=O)OCC(=O)N1CCN(c2ccccc2)CC1 was read as VDR inh -10%.
Screening COc1ccc(-n2c(=O)[nH]cc(C(=O)Nc3ccc(NC(C)=O)cc3)c2=O)cc1 returned VDR inh -3%.
For CN(C)/C=N/c1c(C#N)nnn1Cc1ccccc1 the results were VDR inh -8%.
`Cc1ccc(Cn2cccc(NS(C)(=O)=O)c2=O)cc1` gave VDR inh -16%.
`CC(=O)Cc1nsc(NC(=O)c2cc(-c3ccc(Cl)c(Cl)c3)oc2C)n1` gave VDR inh -7%.
`Cc1ccc(S(=O)(=O)N2CCOCC2)cc1NC(=O)CSc1nnc2cc(C)c3ccccc3n12` gave VDR inh -24%.
Screening COc1ccc(C2CC(c3cccs3)=NN2C(=O)CN2CCCCC2)cc1 (stereo not drawn) returned VDR inh 11%.
O=C(O)c1ccccc1-c1ccc(/C=C2\SC(=O)N(c3ccccc3)C2=O)o1 was read as VDR inh -7%.
COc1ccc(/C(N)=N/OC(=O)N2CCOCC2)cc1 was read as VDR inh 3%.
Cc1cc(C)c(NC(=O)CCN2CCN(Cc3ccccc3)CC2)c(C)c1 was read as VDR inh 7%.
Screening CC1(CC(=O)N/N=C/c2cc(Br)c(O)cc2O)OCCO1 returned VDR inh -8%.
For Cc1ccccc1OCC(=O)OCC(=O)c1ccc[nH]1 the results were VDR inh 17%.
CCN(CC(=O)NCc1cccs1)C(=O)c1cccc(S(=O)(=O)Nc2ccccc2OC)c1 was read as VDR inh -5%.
`Cc1ccc(C(=O)NCCCN2CCOCC2)cc1` gave VDR inh -1%.
Screening COc1ccc(-c2ccc(CCC(=O)O)n2-c2ccccc2O)cc1 returned VDR inh -11%&-9%.
COC(=O)c1cc(S(=O)(=O)n2nc(C)c(Br)c2C)c(Cl)cc1Cl was read as VDR inh -2%.
For C=CCN(Cc1cc(OC)ccc1OC)S(=O)(=O)N(C)C the results were VDR inh -3%.
COc1ccc(-c2nc(CS(=O)(=O)CC(=O)NCCCN3CCOCC3)c(C)o2)cc1 was read as VDR inh 12%.
`COc1cc2[nH]c(=O)n(CCCCCC(=O)NCCCN3CCC(C)CC3)c(=O)c2cc1OC` gave VDR inh -7%.
`O=C(Nc1cccc(NC(=S)NC(=O)c2cccs2)c1)c1ccccc1` gave VDR inh -12%.
For COc1ccc(NC(=O)NN2CCN(C)CC2)cc1 the results were VDR inh 5%.
Screening CCCC(=O)N1CCN(c2ccc(NC(=O)c3ccc4c(c3)OCCO4)cc2)CC1 returned VDR inh -10%.
Screening CCOC(=O)N1CCN(S(=O)(=O)c2ccc(NC(C)=O)cc2)CC1 returned VDR inh -4%.
Cc1cc(Nc2cccc(Cl)c2)nc2ccc(NC(=O)Cc3cccc(C(F)(F)F)c3)cc12 was read as VDR inh 6%.
Screening Cc1cccc(Oc2nccc(C(F)(F)F)c2C(=O)Nc2ccc(F)cc2F)c1 returned VDR inh 4%.
`Cc1sc2ncn(CC(=O)N(C)c3ccc(C(C)C)cc3)c(=O)c2c1S(=O)(=O)N1CCC(C)CC1` gave VDR inh -18%.
For COCCNC(=O)Cc1cn(C)c2ccccc12 the results were VDR inh 4%.
For CSc1n[nH]c(NC(=O)c2c(-c3c(Cl)cccc3Cl)noc2C)n1 the results were VDR inh 5%.
O=Cc1ccc(OCCOc2ccc([N+](=O)[O-])cc2)cc1 was read as VDR inh 19%.
N#Cc1cc2c(nc1SCc1ccccc1)CCCCC2 was read as VDR inh -21%.
Screening Cc1nn(-c2ccccc2)c(C)c1CN(C)C(=O)c1ccc(S(=O)(=O)NCc2ccco2)cc1 returned VDR inh -5%.
O=C(CN1C(=O)CCS(=O)(=O)c2ccccc21)Nc1cccc(F)c1 was read as VDR inh 17%.
Cc1c(NC(=O)c2ccc(=O)oc2)c(=O)n(-c2ccccc2)n1C was read as VDR inh 1%.
`O=C(CCC(=O)Nc1ccccc1)N/N=C/C=C/c1ccccc1` gave VDR inh -3%.
For C=CCNC(=O)C1(c2ccccc2)CC1(Cl)Cl (stereo not drawn) the results were VDR inh 4%.
For CCOc1ccc(NC(=O)Nc2cccnc2)cc1 the results were VDR inh -4%.
O=C(c1ccc2oc(CCc3ccccc3)nc2c1)N1CC[C@H](O)C1 was read as VDR inh 7%.
`CC(=O)c1ccc(NCC(=O)N2CCN(c3ccccc3)CC2)cc1` gave VDR inh 1%.
For Cc1ccccc1NC(=O)CCNS(=O)(=O)c1ccc2[nH]c(=O)oc2c1 the results were VDR inh -4%.
For CCCSc1nc2c(c(=O)[nH]1)C(c1ccc(F)cc1F)CC(=O)N2 (stereo not drawn) the results were VDR inh -5%.
For COc1ccc(CN2CCNC(=O)C2CC(=O)NC2CCCCCC2)c(F)c1 (stereo not drawn) the results were VDR inh -11%.
Screening Cc1ccc(-n2c(C)nnc2SCC(=O)NC2CCCC2)cc1 returned VDR inh -8%.
For N#C/C(=C\c1ccc(OC(=O)c2ccc(Cl)s2)cc1)c1nc2ccccc2[nH]1 the results were VDR inh -2%.
O=C(CN(Cc1ccco1)C(=O)CNS(=O)(=O)c1ccc(F)cc1)NCCc1ccccc1 was read as VDR inh 6%.
For O=C(O)CC(SCC(=O)Nc1ccc(S(=O)(=O)N2CCCC2)cc1)C(=O)O (stereo not drawn) the results were VDR inh inconclusive.

Molecules above that have two or more sulfur atoms, in the order listed:
`Cc1cccc2c1N(C(=O)c1ccco1)C(C)(C)c1ssc(=S)c1-2` gave VDR inh -5%.
`Cc1ccc(Cl)cc1N1CCN(C(=O)C2CCCN(S(=O)(=O)c3ccc(Br)s3)C2)CC1` (stereo not drawn) gave VDR inh -12%.
`Cc1csc2nc(CCNS(=O)(=O)c3ccccc3)cn12` gave VDR inh 3%.
Cc1sc2ncn(CC(=O)N3CCN(c4ccccc4)CC3)c(=O)c2c1S(=O)(=O)N1CCOCC1 was read as VDR inh -7%.
`O=S(Cc1cc(Sc2ccccc2)nc(-c2ccccc2)n1)c1ccccc1` (stereo not drawn) gave VDR inh 2%.
CCn1c(SCc2nc(-c3ccc(OC)c(OC)c3)no2)nnc1-c1cccs1 was read as VDR inh -5%.
For CC1CCN(c2ccc(-c3cccc(NS(=O)(=O)c4cccs4)c3)nn2)CC1 the results were VDR inh 4%.
`Cc1ccc(S(=O)(=O)N2CCOCC2)cc1NC(=O)CSc1nnc2cc(C)c3ccccc3n12` gave VDR inh -24%.
CCN(CC(=O)NCc1cccs1)C(=O)c1cccc(S(=O)(=O)Nc2ccccc2OC)c1 was read as VDR inh -5%.
`O=C(Nc1cccc(NC(=S)NC(=O)c2cccs2)c1)c1ccccc1` gave VDR inh -12%.
`Cc1sc2ncn(CC(=O)N(C)c3ccc(C(C)C)cc3)c(=O)c2c1S(=O)(=O)N1CCC(C)CC1` gave VDR inh -18%.
For O=C(O)CC(SCC(=O)Nc1ccc(S(=O)(=O)N2CCCC2)cc1)C(=O)O (stereo not drawn) the results were VDR inh inconclusive.

Screening data: PubChem BioAssay, National Center for Advancing Translational Sciences (NCATS)
